Assay outcomes: PubChem, several laboratories
GALR2 ag – agonists of human galanin receptor 2 (GALR2) | AID 803 | GALR2-expressing cells, agonist activation read-out | actives 0.48% (n = 140,000) | activation, %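 (tested at 5 µM)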 | O43603;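 active = above mean plus 3 SD of all compounds, about 5% in these data, not always enough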;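 note: 0% = vehicle buffer wells and 100% = reference agonist at full effect; tested in CHO reporter cells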
INS promoter inh – TRM-6 insulin promoter activity inhibition. actives 0.9% (n = 130,000). inhibition, % at 2 µM. TRM-6 cells (human fetal islet line), insulin promoter-eGFP reporter, imaging; reporter expression induced with tamoxifen. AID 1273;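 active = inhibition above the mean plus 3 SD, with well images judged a real hit on visual review, cut at about 60% in these data, passing the limit was not always enough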
PKD1 inh – blocks activity of human protein kinase D1. Q15139. PKD1 kinase fluorescence polarization assay. inhibition, %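 (about 10 µM by stock and volumes)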. actives 0.056% (n = 200,000);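 active = inhibition of 50% or more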;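 note: controls were vehicle for no effect and a reference inhibitor for full effect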
HSV augment – HSV replication enhancement; HSV replication augmentation in cells, fold increase; maximum fold increase; actives 0.005% (n = 220,000);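 active = peak rise of 1.5-fold or more in the series; tested in PC3 cells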;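 note: first round at 10 µM; read as green reporter fluorescence; hits show the peak of a series up to 25 µM; 1 = signal of infected wells without compound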
RGS16-Gao HTS – regulators of human RGS16-Galphao interaction; bead-based flow cytometry RGS16-Galphao binding, fluorescence; actives lie on both sides; binding response (% of control), % at 10 µM; actives 0.38% (n = 220,000);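 active = below 25% or above 175%, edge rows of some plates excepted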;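 note: Galphao activated by GDP with aluminum fluoride before binding; 100% = wells without compound and 0% = beads without RGS; some results beyond the cut were filed as inactive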
INS promoter inh cell count – further read-out of INS promoter inh, marked with its call; normalized cell count, %; measured here: cell count, toxicity; reference of the scale not given here;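 cells exposed to compound for 48 h; stained nuclei by imaging scaled within each plate; lower means fewer cells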
HSV augment primary fold – also measured in HSV augment; calls as there; fold increase; compound at 10 µM; measured here: primary screen fold increase 10 uM; tested in PC3 cells;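 GFP signal in the first replicate; 1 = infected wells without compound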
* = called active by the depositor; i = inactive; . = no result given; & = joins results of further samples. The list is partial; rates above refer to the full screens.

Short keys: A = GALR2 ag; B = INS promoter inh; C = INS promoter inh cell count; D = PKD1 inh; E = HSV augment; F = HSV augment primary fold; G = RGS16-Gao HTS
smiles: COc1ccccc1N1CCN(CCCNc2cc(=O)n(C)c(=O)n2C)CC1
  A = . | B = . | C = . | D = . | E = i | F = 0.63 | G = 95.3

smiles: c1ccc(CN(CC2=NCCN2)c2ccccc2)cc1
  A = -1.2&-0.7 | B = 0.0&-31.8 | C = 166.2&106.1 | D = -0.9&0.5 | E = i | F = 0.88&0.64 | G = 94.2&94.7

smiles: CC(COc1ccccc1)NC(C)C(O)c1ccc(O)cc1 (centres undefined)
  A = -0.4 | B = 45.5 | C = 83.7 | D = -6.8 | E = i | F = 0.92 | G = 96.0

smiles: CCN(CC)CCOC(=O)C1(c2ccccc2)CCCC1
  A = 0.6 | B = -9.7 | C = 64.6 | D = -4.9 | E = i | F = 0.85 | G = 109.0

smiles: O=C(c1ccc(F)cc1)C1CCN(CCn2c(=O)[nH]c3ccccc3c2=O)CC1
  A = . | B = . | C = . | D = . | E = i | F = 0.92 | G = 97.5

smiles: CC[N+](C)(CC)CCOC(=O)C(O)(c1ccccc1)C1CCCCC1 (centres undefined)
  A = -1.1 | B = -36.4 | C = 149.8 | D = -6.4 | E = i | F = 0.85 | G = 97.8

smiles: C[C@]12CCC(=O)C=C1CC[C@@H]1[C@@H]2CC[C@@]2(C)[C@H]1CC[C@]2(O)C(=O)CO
  A = -2.5 | B = -19.1 | C = 54.3 | D = 1.4 | E = i | F = 1.02 | G = 103.8

smiles: CCOc1ccc(C(=O)OCCN(CC)CC)cc1
  A = -1.7 | B = 80.0* | C = 25.2* | D = -2.4 | E = i | F = 0.89 | G = 98.9

smiles: CCC(C)n1ncn(-c2ccc(N3CCN(c4ccc(OCC5COC(Cn6cncn6)(c6ccc(Cl)cc6Cl)O5)cc4)CC3)cc2)c1=O (centres undefined)
  A = . | B = . | C = . | D = . | E = i | F = 0.78 | G = 105.2

smiles: O=C(NCCc1c[nH]c2ccccc12)c1cccnc1
  A = -2.9 | B = -20.0 | C = 21.4 | D = -11.2 | E = i | F = 0.96 | G = 102.0

smiles: COc1cc2c(c(OC)c1OC)-c1c(cc3c(c1OC)OCO3)[C@@H](OC(C)=O)[C@H](C)[C@H](C)C2
  A = . | B = . | C = . | D = . | E = i | F = 1.06 | G = 94.4

smiles: Cc1nc2ccccn2c(=O)c1CCN1CCC(C(=O)c2ccc(F)cc2)CC1
  A = -0.5 | B = 4.3 | C = 93.5 | D = 2.7 | E = i | F = 0.8 | G = .

smiles: NC(=O)c1cccc(-c2cc(Nc3ccc(OC(F)(F)F)cc3)ncn2)c1
  A = . | B = . | C = . | D = . | E = i | F = 0.55 | G = 107.6

smiles: C1CCC(C(CC2CCCCN2)C2CCCCC2)CC1 (centres undefined)
  A = 4.7 | B = -86.4 | C = 116.3 | D = 2.8 | E = i | F = 0.62 | G = 96.1

smiles: c1ccc(CC2=NCCN2)cc1
  A = -2.0 | B = -29.6 | C = 103.1 | D = -5.5 | E = i | F = 0.86 | G = 94.4

Reprinted from the part before: three entries; new compounds follow.
Short keys: A = GALR2 ag; B = INS promoter inh; C = INS promoter inh cell count; D = PKD1 inh; E = HSV augment; F = HSV augment primary fold; G = RGS16-Gao HTS
smiles: NC(=O)c1cccc(-c2cc(Nc3ccc(OC(F)(F)F)cc3)ncn2)c1
  A = . | B = . | C = . | D = . | E = i | F = 0.55 | G = 107.6

smiles: C1CCC(C(CC2CCCCN2)C2CCCCC2)CC1 (centres undefined)
  A = 4.7 | B = -86.4 | C = 116.3 | D = 2.8 | E = i | F = 0.62 | G = 96.1

smiles: c1ccc(CC2=NCCN2)cc1
  A = -2.0 | B = -29.6 | C = 103.1 | D = -5.5 | E = i | F = 0.86 | G = 94.4

smiles: CN1CCN(CCC(=O)N2c3ccccc3Sc3ccc(C(F)(F)F)cc32)CC1
  A = 1.1 | B = . | C = . | D = -1.9 | E = i | F = 0.99 | G = 104.5

smiles: CCOc1ccc(NC(=O)Cn2cc(C(=O)c3ccco3)c3ccccc32)cc1
  A = 1.0 | B = -342.9 | C = 79.5 | D = -1.4 | E = i | F = 0.87 | G = 96.4

smiles: Cc1cc(-c2ccccc2)nnc1NCCN1CCOCC1
  A = -1.9 | B = 9.1 | C = 75.9 | D = 0.0 | E = i | F = 0.83 | G = 108.4

smiles: COc1ccc(/C=C/C(=O)Nc2ccccc2C(=O)O)cc1OC
  A = -0.9 | B = 40.9 | C = 103.3 | D = -5.3 | E = i | F = 0.9 | G = 100.3&95.6

smiles: O=C(CCN1CCC(c2ccccc2)C1)c1ccc2c(c1)OCCO2 (centres undefined)
  A = -2.0 | B = . | C = . | D = -1.4 | E = i | F = 0.86 | G = 104.5

smiles: CCN(CC)CCNC(=O)c1cc(Cl)c(N)cc1OC
  A = -0.3 | B = -27.3 | C = 143.3 | D = -5.5 | E = i | F = 0.86 | G = 106.3

smiles: O=C(CCNNC(=O)c1ccncc1)NCc1ccccc1
  A = 0.1 | B = 33.3 | C = 106.0 | D = 3.4 | E = i | F = 0.92 | G = 95.2

smiles: Cc1c(NC(=O)c2cccnc2)c(=O)n(-c2ccccc2)n1C
  A = . | B = . | C = . | D = . | E = i | F = 1.16 | G = 100.2

smiles: OCCN1CCN(CCCN2c3ccccc3Sc3ccc(Cl)cc32)CC1
  A = -0.6 | B = 23.8 | C = 163.9 | D = -5.8 | E = i | F = 0.93 | G = 97.7

smiles: CC(=O)NC(Cc1ccccc1)C(=O)O (centres undefined)
  A = -3.4 | B = -122.2 | C = 123.5 | D = -2.4 | E = i | F = 0.96 | G = 101.5

smiles: CC1(C)Cc2c(sc(NC(=S)NC(=O)c3ccccc3)c2C(=O)O)CO1
  A = . | B = 0.0 | C = 149.6 | D = -2.4 | E = i | F = 1.07 | G = 100.1

smiles: CN(C)CCOC(C)(c1ccccc1)c1ccccn1 (centres undefined)
  A = -1.4 | B = 54.5 | C = 142.0 | D = -6.1 | E = i | F = 0.84 | G = 106.0&91.0

Looked up by structure from above:
Short keys: A = GALR2 ag; B = INS promoter inh; C = INS promoter inh cell count; D = PKD1 inh; E = HSV augment; F = HSV augment primary fold; G = RGS16-Gao HTS
smiles: NC(=O)c1cccc(-c2cc(Nc3ccc(OC(F)(F)F)cc3)ncn2)c1
  A = . | B = . | C = . | D = . | E = i | F = 0.55 | G = 107.6

smiles: O=C(NCCc1c[nH]c2ccccc12)c1cccnc1
  A = -2.9 | B = -20.0 | C = 21.4 | D = -11.2 | E = i | F = 0.96 | G = 102.0

smiles: CN(C)CCOC(C)(c1ccccc1)c1ccccn1 (centres undefined)
  A = -1.4 | B = 54.5 | C = 142.0 | D = -6.1 | E = i | F = 0.84 | G = 106.0&91.0
